Source: PubChem
Measles inh: inhibitors of measles virus growth in infected cells. actives 0.1% (n = 33,000). infected Vero cells, GFP fluorescence, 64 h; active compounds read low. z-score (concentration not given with the values);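 active means z-score under -3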;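 further: score is relative to mean and SD of the compound wells of a plate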
Numbers without * were called inactive.

Measles inh	canonical_smiles
0.83	Cc1ccccc1C(=O)Nc1sc2c(c1C(=O)N1CCC(C)CC1)CCC2
0.35	CC1=C(C(=O)Nc2ccc(C)cc2C)C(c2cccs2)NC(=S)N1 (configuration not stated)
-0.06	Cc1cc2c(cc1C)C(c1cc3c(cc1Cl)OCO3)CC(=O)N2 (configuration not stated)
-0.92	COc1cc2c(cc1OC)C(Nc1ccc([N+](=O)[O-])cc1)=NC1(CCCC1)C2
-0.23	CN(CC(=O)NC1CCCC1)S(=O)(=O)c1cccs1
-0.41	Cc1ccc(-n2nc3c(c2NC(=O)c2ccc(S(=O)(=O)N(C)C)cc2)CSC3)c(C)c1
-0.85	O=C(CNC(=O)Cn1cnc2ccccc2c1=O)NCc1ccc(F)cc1
0.48	COc1ccc(S(=O)(=O)NC2CC(C)(C)NC(C)(C)C2)cc1
0.47	Cc1ccc(N2CCSC2c2ccco2)cc1 (configuration not stated)
-0.5	O=C(Oc1ccc(F)cc1)c1cccc(C(=O)Oc2ccc(F)cc2)n1
0.44	COCCOC(=O)c1ccc(NC(=O)C(C)(C)C)cc1
-0.14	O=C(NC1CCCC1)c1cnn2c(C(F)(F)F)cc(-c3ccco3)nc12
-0.29	COc1ccc(Cn2c(=S)[nH]c3cc(C(=O)N4CCCCC4)ccc3c2=O)cc1
-0.76	CCn1c(=N)c(C(=O)OC)cc2c(=O)n3ccccc3nc21
1.8	O=C(Nc1ccccc1-c1nc2ccccc2s1)c1ccc([N+](=O)[O-])cc1
0.16	CC1=C(C(=O)Nc2ccccc2)C(c2ccc([N+](=O)[O-])cc2)NC(=S)N1 (configuration not stated)
-0.19	O=C(CSc1nc2sc3c(c2c(=O)[nH]1)CCCC3)N1CCN(CCO)CC1
-0.23	CC1CC(C)CN(C(=O)CSC2=Nc3ccccc3C3=NC(Cc4c[nH]c5ccccc45)C(=O)N23)C1 (configuration not stated)
-0.66	Cc1ccc(NC(=O)c2cc(S(=O)(=O)NCC3CCCO3)ccc2F)cc1 (configuration not stated)
1.2	Cn1c(=O)c2c([nH]c(=S)n2Cc2cccc(C(F)(F)F)c2)n(C)c1=O

A few values from the list.
O=C(CSc1nc2sc3c(c2c(=O)[nH]1)CCCC3)N1CCN(CCO)CC1 @ Measles inh: -0.19
Cc1ccc(-n2nc3c(c2NC(=O)c2ccc(S(=O)(=O)N(C)C)cc2)CSC3)c(C)c1 @ Measles inh: -0.41
CC1=C(C(=O)Nc2ccc(C)cc2C)C(c2cccs2)NC(=S)N1 (configuration not stated) @ Measles inh: 0.35
CC1CC(C)CN(C(=O)CSC2=Nc3ccccc3C3=NC(Cc4c[nH]c5ccccc45)C(=O)N23)C1 (configuration not stated) @ Measles inh: -0.23
COc1cc2c(cc1OC)C(Nc1ccc([N+](=O)[O-])cc1)=NC1(CCCC1)C2 @ Measles inh: -0.92

Part of the list above, as labelled records:
> CCn1c(=N)c(C(=O)OC)cc2c(=O)n3ccccc3nc21
  Measles inh: -0.76
> O=C(Nc1ccccc1-c1nc2ccccc2s1)c1ccc([N+](=O)[O-])cc1
  Measles inh: 1.8
> CC1=C(C(=O)Nc2ccccc2)C(c2ccc([N+](=O)[O-])cc2)NC(=S)N1 (configuration not stated)
  Measles inh: 0.16
> O=C(CSc1nc2sc3c(c2c(=O)[nH]1)CCCC3)N1CCN(CCO)CC1
  Measles inh: -0.19

New compounds follow.
Measles inh	canonical_smiles
-0.14	Cn1c(=O)[nH]c(=O)c2c1nc(SCCCO)n2CCCc1ccccc1
-0.01	Cc1cc(I)ccc1NC(=O)Cn1cnc2scc(-c3ccccc3)c2c1=O
-0.88	O=C(CN1C(=O)c2ccccc2S1(=O)=O)Nc1cccc(Br)c1
-0.57	O=c1oc2c(-c3ccc(Br)cc3)cc(O)cc2s1
-1.1	CCN(CC)C(=O)CSc1nc2ccsc2c(=O)n1CCc1ccc(Cl)cc1
0.41	Cc1ccc(C)c(CSC2=NCCN2C(=O)c2cc3ccccc3o2)c1
-1.8	Cc1ccc(-c2nc3ccccn3c2Nc2ccccc2C)o1
1.4	COCCNC(=O)C1CCN(S(=O)(=O)c2ccc(F)cc2)CC1
-0.95	COc1ccc(CCn2c(SCc3cc(=O)n4ccccc4n3)nc3ccc(N4CCOCC4)cc3c2=O)cc1OC
-0.37	CNC(=O)c1c(-c2ccccc2)c2cc(OC)ccc2n1CCN(C)C
-2	Cc1nc(CSc2nnc3scc(-c4ccccc4)n23)cs1
0.25	Cc1cccc(-n2nc3c(c2NC(=O)c2ccco2)CSC3)c1
1.8	CN1CCN(c2c(CN3CCCC3)c(=O)oc3ccccc23)CC1
1.9	Cc1ccc2c(c1)c(-c1ccccc1)nc1nnnn12
1	CCOc1cccc(C=Nc2cccc(NC(=O)c3ccc(F)cc3)c2)c1O
0.28	O=C(O)CCNC(=O)c1ccc2c(c1)C(=O)N(CC1CCCO1)C2=O (configuration not stated)
-0.17	CCCOc1ccc(S(=O)(=O)NCc2ccc3c(c2)OCO3)cc1
2.3	COC(=O)c1c(N)n(-c2cccc(C)c2)c2nc3ccccc3nc12
-0.04	Cc1cc(Cl)ccc1OCC(=O)NCCO
-1	O=C(CN1CCOCC1)NCCNC(=O)c1ccccc1

In a second layout: entries from further up
Structure | Measles inh
COC(=O)c1c(N)n(-c2cccc(C)c2)c2nc3ccccc3nc12 | 2.3
Cc1cc(Cl)ccc1OCC(=O)NCCO | -0.04

Next section.
Measles inh	canonical_smiles
-0.44	O=C(COc1nsnc1N1CCOCC1)Nc1ccc(Cl)cc1
-0.18	CCC(=O)N1CCc2cc(Br)cc(S(=O)(=O)CCC(=O)N3CCN(C(=O)c4ccco4)CC3)c21
1	Cc1c(NC(=O)CCC(=O)O)c(=O)n(-c2ccccc2)n1C
1.1	COc1cc(C(=S)N2CCCCC2)ccc1OC(=O)c1ccc(C)cc1
-2.2	CCCCc1cc(=O)oc2cc3occ(-c4ccc(Cl)cc4)c3cc12
-0.33	COc1cc(C2NC(=O)NC(O)(C(F)(F)F)C2C(=O)c2ccc(C)cc2)ccc1O (configuration not stated)
-0.54	Cc1nc(Nc2ccc(F)cc2)c2oc3ccccc3c2n1
0.11	Cc1cccc(NC(=O)c2ccccc2[N+](=O)[O-])n1
1.7	Cc1ccccc1Cn1nc(C)c(NC(=O)c2cc(-c3ccco3)on2)c1C
0.91	CCC(C)NC(=O)CN1N=C(c2ccc(OC)cc2)CCC1=O (configuration not stated)
1.8	O=C(Cn1c(=S)[nH]c2ccccc2c1=O)NCC1CCCO1 (configuration not stated)
-1.4	O=C1c2ccccc2-c2onc3c(Br)cc(O)c1c23
0.72	CC1Cc2ccccc2N1S(=O)(=O)c1ccc2[nH]c(=O)c(=O)[nH]c2c1 (configuration not stated)
-0.21	O=C(NCC1CCCO1)c1ccc(Cn2c(SCc3ccccc3F)nc3ccccc3c2=O)cc1 (configuration not stated)
0.08	Cc1cccc(NC(=O)c2cnc3sccn3c2=O)n1
-0.77	O=C(CN1C(=O)C2C3C=CC(C3)C2C1=O)Nc1ncc(S(=O)(=O)c2ccc([N+](=O)[O-])cc2)s1 (configuration not stated)
-0.17	COc1ccc2cc(CCN3C(=O)c4ccccc4C3=O)c(=O)[nH]c2c1
2.1	COc1ccc2c(c1OC)C(=O)N(C(C)C(=O)O)C2=O (configuration not stated)
1.3	NS(=O)(=O)c1ccc(NC(=O)CN2CCN(CC(=O)Nc3ccc(F)cc3)CC2)cc1
0.59	COc1ccccc1CNC(=O)c1ccc(CNS(=O)(=O)c2ccc(F)cc2)cc1

(list continues)
Measles inh	canonical_smiles
-0.59	O=[N+]([O-])c1ccc(C=Nc2ccc3nc(-c4cccc(Br)c4)oc3c2)cc1
-0.41	Cc1ccccc1CSCc1ccc(C(=O)NCc2ccc(F)cc2)o1
-1.2	COc1ccc(C(=O)C(OC(=O)c2cc([N+](=O)[O-])ccc2Cl)c2ccccc2)cc1 (configuration not stated)
-1.4	CC1CCCCN1C(=O)CSc1nnc(-c2ccccc2)o1 (configuration not stated)
0.96	CC(=O)Nc1c(NCc2ccccc2)c2ccccc2oc1=O
-0.79	COc1ccc(N2N=C(C(C)=O)N(c3ccccc3)C2c2ccc(N(C)C)cc2)cc1 (configuration not stated)
-0.94	CCC(C)n1c(=N)c(C(=O)NC2CCCCC2)cc2c(=O)n3ccccc3nc21 (configuration not stated)
1.3	COc1ccc(Br)cc1C(=O)Nc1ccc(Cl)c(-c2nc3cc(C)ccc3o2)c1
-0.95	Ic1ccc(Oc2ccc(I)cc2)cc1
2.5	COC(=O)c1ccc2c(c1)C(C)(C)C1(C=Cc3cc([N+](=O)[O-])ccc3O1)N2C (configuration not stated)
-1.2	Cn1cc(C(=O)NCc2ccc3c(c2)OCO3)c2c3ccccc3n(C)c2c1=O
-0.18	O=C(COc1ccccc1)N1CCC(N2CCN(c3ccccc3)CC2)CC1
-0.16	C=CCNC(=O)c1c[nH]n2c(=O)c(Cc3ccc(F)cc3)c(C)nc12
-0.04	CC1CCCN(c2nc3c(c(=O)n(C)c(=O)n3C)n2CC(=O)c2ccc(Br)cc2)C1 (configuration not stated)
-0.27	COCCn1c(=O)[nH]c2cc(C(=O)N3CCN(C)CC3)ccc2c1=O
-1.7	CC(C)CCNC(=O)Cn1c(=O)[nH]c2ccccc2c1=O
1.2	O=C(NC1CCCC1)C(c1ccc(Cl)cc1)N1CCCC1 (configuration not stated)
1.5	Cc1cc([N+](=O)[O-])ccc1N1C(=O)C2C3c4ccccc4C(c4ccccc43)C2C1=O (configuration not stated)
0.77	Cc1ccc(CNC(=O)c2cc(-c3ccccc3)nc3ccccc23)cc1
0.48	O=C(CN1CCN(Cc2ccccc2)C1=O)NCc1ccc(Cl)cc1

Reprinted from the part before: six compounds, followed by the next part.
Measles inh	canonical_smiles
-0.27	COCCn1c(=O)[nH]c2cc(C(=O)N3CCN(C)CC3)ccc2c1=O
-1.7	CC(C)CCNC(=O)Cn1c(=O)[nH]c2ccccc2c1=O
1.2	O=C(NC1CCCC1)C(c1ccc(Cl)cc1)N1CCCC1 (configuration not stated)
1.5	Cc1cc([N+](=O)[O-])ccc1N1C(=O)C2C3c4ccccc4C(c4ccccc43)C2C1=O (configuration not stated)
0.77	Cc1ccc(CNC(=O)c2cc(-c3ccccc3)nc3ccccc23)cc1
0.48	O=C(CN1CCN(Cc2ccccc2)C1=O)NCc1ccc(Cl)cc1
-0.8	CCCC(=O)N(c1ccc2oc(C)c(C(=O)OCC)c2c1)S(=O)(=O)c1cc(C)ccc1C
2.4	O=C(Cn1c(=O)n(Cc2ccc3c(c2)OCO3)c(=O)c2ccccc21)NCCc1ccccc1
-0.13	Cc1ccc(-n2nc(C)c(S(=O)(=O)c3ccccc3)c2OC(=O)c2ccccc2[N+](=O)[O-])c(C)c1
0.78	O=C1CCCC2=C1C(c1cccc([N+](=O)[O-])c1)N(C(=O)c1ccccc1)c1ccccc1N2 (configuration not stated)
1.9	NS(=O)(=O)c1ccccc1N1C(=O)CCC1=O
-0.37	COc1cc2c(cc1OC)C(COc1ccc(F)cc1)N(C(=O)C1CC1)CC2 (configuration not stated)
-0.27	CCOC(=O)Cc1nnc(NC(=O)c2ccc([N+](=O)[O-])cc2)s1
-0.8	COc1cccc(-c2nnc(NC(=O)Nc3cccc(Cl)c3)s2)c1
0.37	Nc1ccc2nc(-c3cccnc3)[nH]c2c1
0	CCCCc1ccc(NC(=O)C2CC(=O)N(c3ccc(CC)cc3)C2)cc1 (configuration not stated)
-0.36	O=c1c2ccccc2n(Cc2ccccc2F)c(=O)n1CCc1ccccc1
-0.04	CC(=O)NC(CCS(C)(=O)=O)C(=O)Nc1ncn[nH]1 (configuration not stated)
1.6	CCSCCOC(=O)C1=C(C)NC2=C(C(=O)CC(C)(C)C2)C1c1ccc(C)s1 (configuration not stated)
-0.15	O=C1c2ccccc2-c2n[nH]c(=O)c3ccc(Cl)c1c23
0.01	CCOC(=O)c1c(N=CC2C(=O)CC(C)(C)CC2=O)sc2c1CCCC2
-0.54	COc1ccc2c(c1)c1n[nH]c(=S)nc1n2C
-0.53	CCCCOc1cccc(NC(=O)c2ccccc2OC)c1
-0.52	CC(C)Sc1ncnc2c1sc1nc(N3CCOCC3)c3c(c12)CC(C)(C)OC3
-0.06	CC(=O)N1N=C(c2ccc(Cl)cc2)OC12CCCC2
-0.11	CC1=C(C(=O)OCc2ccccc2)C(c2cccc([N+](=O)[O-])c2)NC(=O)N1 (configuration not stated)

Next part.
Measles inh	canonical_smiles
-0.82	O=C1Nc2cc(C(=O)N3CCN(c4ccccc4)CC3)ccc2SC1N1CCCC1 (configuration not stated)
-0.99	COc1ccc(-c2cc(C(F)(F)F)n3ncc(C(=O)NCCCN4CCOCC4)c3n2)cc1
0.2	CCOc1ccc(C2=Nn3c(nnc3-c3ccccc3O)SC2)cc1Cl
-0.57	COc1ccccc1C1C=C(c2ccc(I)cc2)Nc2nnnn21 (configuration not stated)
0.3	CCC1=NN(C(=O)c2cccc(Cl)c2)C(O)(C(F)(F)F)C1 (configuration not stated)
0.04	CCCOC(=O)COc1cc2oc(=O)c3c(c2cc1Cl)CCC3
-0.77	CCOC(=O)c1c(NC(=O)c2ccc(Cl)cc2)sc2c1CCCC2O (configuration not stated)
-0.76	Cc1ccc(S(=O)(=O)N2CCC(C(=O)O)CC2)c2nsnc12
-0.16	CCOc1cccc(-c2cc(C(=O)O)c3cc(Br)ccc3n2)c1
-0.04	O=C(NCCCN1CCOCC1)c1ccc2c(c1)OCO2
0.46	CCCCCCC(=O)Nc1ncc(Cc2ccc(F)cc2)s1
0.18	Nc1ncnc(NC2CCCCCCCCCCC2)c1[N+](=O)[O-]
0.3	Cc1cc(C)nc(SCC(=O)N2c3ccccc3C(C)CC2(C)C)n1 (configuration not stated)
-0.6	O=C(Nc1ccc(S(=O)(=O)Nc2nccs2)cc1)c1ccco1
-0.3	CCCOc1ccc(C2Nc3ccc4ncccc4c3C3=C2C(=O)CC(c2ccccc2)C3)cc1 (configuration not stated)
1.1	CC1CCCN(C(=O)Cn2c(=O)oc3ccccc32)C1 (configuration not stated)
-1.2	COC(=O)C1=CN(CCC23CC4CC(CC(C4)C2)C3)C=C(C(=O)OC)C1c1cccs1
0.23	COc1cccc(NC(=O)CSc2nc3ccsc3c(=O)n2Cc2ccccc2)c1
-0.51	O=C(CSc1nc2ccccc2n1S(=O)(=O)c1cccc([N+](=O)[O-])c1)NCc1ccccc1
-0.14	CCn1c(=S)ccc2cc(C)ccc21
1.3	CCOc1ccc(NC(=O)CCSc2nnc(C)s2)cc1

Some of the compounds tested (hit frequency here may not be typical).
